High-throughput results deposited in PubChem BioAssay by ICCB-Longwood Screening Facility, Harvard Medical School.
GIV-Gai inh: blocks GIV peptide binding to rat Galpha-i3; 0.42% of 210,000 active; Galpha-i3/FITC-GIV peptide fluorescence polarization, 90 min; hits give low values; scaled: aluminum fluoride 0%, vehicle 100%; P08753; AID 1224905; percent of control (FP), % (no concentration beside the values);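 active means replicate mean at 85% of control or lower, very high polarization wells dropped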;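 further: wells of about 15 µL received 100 nL stock; the first replicate is given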
Target sequence (P08753 whole entry, looked up): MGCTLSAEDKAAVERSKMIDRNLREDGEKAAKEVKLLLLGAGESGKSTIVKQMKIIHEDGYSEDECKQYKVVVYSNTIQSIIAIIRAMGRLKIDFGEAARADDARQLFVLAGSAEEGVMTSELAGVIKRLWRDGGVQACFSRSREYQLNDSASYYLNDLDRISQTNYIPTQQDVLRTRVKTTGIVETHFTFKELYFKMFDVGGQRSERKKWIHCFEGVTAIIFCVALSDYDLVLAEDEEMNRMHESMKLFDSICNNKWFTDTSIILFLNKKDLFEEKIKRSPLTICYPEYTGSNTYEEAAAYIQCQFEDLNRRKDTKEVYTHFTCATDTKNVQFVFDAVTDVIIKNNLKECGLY
HCMV NEC inh: cytomegalovirus nuclear egress complex inhibition | 0.15% of 190,000 active | HTRF UL50-UL53 interaction, normalized percent inhibition | inhibition, % (concentration not given with the values);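 active means both replicates at 50% or more, plus weaker picks with an unusually low signal ratio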;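 further: stock transfer was 100 nL into about 20 µL; 0% = negative control wells and 100% = wells with untagged competitor protein; inactives centre near -12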
Sa growth 42C: S. aureus growth inhibition | relative growth, % (concentration not given with the values) | S. aureus RN4220 growth, OD600, 20 h, 42 °C; hits give low values | 0.53% of 170,000 active | AID 720641;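 active means growth at 42 °C up to 50% and 20 or more points under that at 30 °C, or under 10% at both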;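 further: 300 nL library stock went into each well; scaled to the means of positive and negative controls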
Sa growth 42C second temp: recorded beside Sa growth 42C, whose call it bears; relative growth, %; measured here: growth at 30 °C;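 optical density after 20 h as mean of two plates; 100% = untreated growth and lower means inhibition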
An asterisk follows results filed as active; . = not tested or not shown; & = joins results of further samples. An unsorted share of the library; overall some 0.83% were active at least once.

SMILES	GIV-Gai inh	HCMV NEC inh	Sa growth 42C	Sa growth 42C second temp
O=C(O)CNc1ccc(Cl)cc1C(=O)c1ccccc1	101	-72	79	73
CC1(C)CCc2cc(C3SCCS3)ccc2O1	104	9	99	91
FC(F)(F)c1ccc(N2CCCC2)nc1	103	-20	102	99
O=S(=O)(Cc1ccco1)Cc1nc(-c2ccc(-c3ccccc3)cc2)cs1	109	-6	99	89
O=S(=O)(Nc1ccc(-c2ccc(N3CCCC3)nn2)cc1)c1ccc2c(c1)OCCO2	99	-30	.	.
CCN(CC)S(=O)(=O)c1cc(C(=O)N2CCN(c3ccccc3)CC2)ccc1N1CCCC1	108	2	.	.
CCCCNC(=O)c1cc(Cc2c(C)n[nH]c2C)c(N2CCOCC2)s1	115	-5	93	95
COC(=O)c1ccc(CSc2n[nH]c(-c3ccccc3)n2)o1	108	-18	97	99
COc1ccc(-c2nc(CSCC(=O)N3CCN(c4cc(Cl)ccc4C)CC3)c(C)o2)cc1	100	-2	84	51
Cc1ccc(-c2nc(C(=O)Nc3ccc(Cl)cc3)c3n2CCCCC3)cc1	109	.	125	88
Cc1ccc(-n2ncc3c(N4CCN(Cc5ccccc5)CC4)ncnc32)cc1Cl	103	.	106	86
O=C(NCCc1ccccn1)c1nc2ccccc2c(=O)[nH]1	109	7	118	97
CCOC(=O)c1c(C)[nH]c(NC(=O)Nc2ccc(C(=O)OC)cc2)c1C	101	-2	.	.
CCOCCCn1c(SCC(=O)Nc2ccccc2OC)nc2c(oc3ccccc32)c1=O	98	-17	103	87
CCOc1ccc(C2C3=C(CCCC3=O)N(CC)C3=C2C(=O)CCC3)cc1	.	-23	94	83
CN(C(=O)c1cccc(Nc2ccc(-c3ccc4c(c3)OCCO4)nn2)c1)C1CCCCC1	106	-2	110	50
CN(C)c1ccc(/C=C(\C#N)S(C)(=O)=O)c(F)c1C#N	105	-54	112	90
COc1ccccc1NC(=O)Cc1nc(CN2CC(C)OC(C)C2)cs1 (stereo not given)	.	0	104	97
Cc1ccc(NC(=O)C2CCN(S(=O)(=O)c3c(C)noc3/C=C/c3ccco3)CC2)cc1C	107	-23	116	95
CCOC(=O)CC1=CC(SCC(=O)Nc2c(C)cc(C)cc2C)=Nc2cc(C)c(C)cc2N1	106	-28	.	.
COC(=O)CNC(=O)Nc1cc(C(=O)NCc2ccc(C)cc2)ccc1N1CCCC1	99	.	90	88
O=C(c1ccc2c(c1)N(Cc1ccccc1F)C(=O)c1ccccc1S2(=O)=O)N1CCN(c2ccccc2F)CC1	103	-23	106	90
COc1cccc(-n2ccn(CC(=O)Nc3ccccc3F)c(=O)c2=O)c1	98	-30	131	98
O=C(CCc1nc2ccccc2[nH]c1=O)OCc1ccc(Cl)cc1	103	-18&1	110&107	91&92
Cc1ccc(C)c2c(N)c3c(nc12)CCCCC3	99	-8	88	95
Cc1cc(C)cc(NC(=O)c2cc(C)nc3c2c(C)nn3-c2ccccc2)c1	109	.	130	85
COC(=O)c1ccc(COC(=O)c2oc3ccccc3c2COC(C)C)o1	.	18	107	107
CCCS(=O)(=O)NC1COc2ccccc2C1 (stereo not given)	107	-20	.	.
O=C(Nc1nnc(C2CC2)s1)C(F)(F)F	100	.	104	88
O=C1CCC/C(=N\NC(=O)Cc2cn3ccsc3n2)C1	.	3	110	103
O=C(Cc1ccccc1)N(Cc1cccnc1)c1nc2c(Cl)cccc2s1	100	.	92	76
N#Cc1c[nH]n2c(NC3CCCCC3)c(-c3cccc(Cl)c3)nc12	97	-3	107	77
COCCNc1nc2ccccc2c2nc(-c3cccnc3)nn12	105	8	91	99
COC(=O)C1=C(C)N(C(C)c2ccccc2)C(=O)/C1=C\c1ccco1 (stereo not given)	99	.	98	84
Cc1ccc(NC(=O)c2cc(S(=O)(=O)N3CCCCCC3)ccc2F)cc1F	108	.	124	96
CCOc1ccc2c(c1)-c1c(ssc1=S)C(C)(C)N2C	.	-8	92	98

For reference, 2 of the compounds above.
SMILES	GIV-Gai inh	HCMV NEC inh	Sa growth 42C	Sa growth 42C second temp
Cc1ccc(NC(=O)c2cc(S(=O)(=O)N3CCCCCC3)ccc2F)cc1F	108	.	124	96
CCOc1ccc2c(c1)-c1c(ssc1=S)C(C)(C)N2C	.	-8	92	98

Going on with the list.
SMILES	GIV-Gai inh	HCMV NEC inh	Sa growth 42C	Sa growth 42C second temp
Cc1ccc(SCCC(=O)N(C)C)cc1	109	20	104	99
C=CCn1c(Sc2ncnc3sc(C)c(C)c23)nnc1C1CCCCC1	.	5	105	101
N#Cc1ccc(N2C(=O)c3ccccc3C2=O)cc1	.	-17	84	85
O=C(NCCc1ccc(Cl)cc1)c1nc(-c2cccnc2)no1	104	-16	97	86
O=C(Cn1ncc2c3ccccc3n(Cc3ccccc3)c2c1=O)NCc1ccccc1	106	-16	108	92
Cc1ccc2nc(-c3ccc(C)o3)c(Nc3ccc4c(c3)OCCO4)n2c1	109	6	81	62
COc1ccc2c(=O)c(Oc3cc(C)ccc3C)coc2c1	104	.	74	76
COc1cc(C=C2C(=O)NC(=O)NC2=O)ccc1OC(=O)c1cc(F)c(F)cc1Cl	101	-3	.	.
Cc1cc(C(C)(C)C)ccc1OCCN(C)C	100	-6	100	91
CN(C(=O)CCCOc1ccc(Cl)cc1Cl)C1CCCCC1	.	-12	94	93
CCOC(=O)c1oc2ccccc2c1COC(=O)c1c(C)nn(-c2ccc(F)cc2)c1Cl	.	-17	95	85
CCOC(=O)c1ccc(NC(=O)CS(=O)(=O)c2cn(CC)c3ccccc23)cc1	103	-25	92	71
Cc1ccc(NC(=O)COc2cccc3c2CCNC3=O)cc1Cl	103	-42	85	96
CCCCn1c(SCC(=O)C(C#N)c2nc(C)cs2)nc2cc(S(N)(=O)=O)ccc21 (stereo not given)	.	-26	87	95
Cc1cccc(C)c1NC(=S)N1CC(C)OC(C)C1 (stereo not given)	107	-15	100	89
N#Cc1ccc(CN(c2ccncc2)S(=O)(=O)c2ccccc2)cc1	.	-28	98	92
CCCCNc1nc2ccccc2n1CC(=O)Nc1ccc(S(=O)(=O)N2CCCC2)cc1	.	-11	97	90
Cc1cc(C)n(-c2nc(C)c(C)c(=O)n2CC(=O)Nc2ccc(OC(F)(F)F)cc2)n1	98	.	98	90
Cc1cc(C)nc(N2CCN(c3cc(C)nc4nc(C(F)(F)F)nn34)CC2)n1	110	-25	.	.
O=C(CSc1nc2ccsc2c(=O)n1NC(=O)COc1ccccc1Br)NCc1ccco1	98	-25	78	39
COc1ccc2nc(NC(=O)CN(C)S(=O)(=O)c3cccs3)sc2c1	105	.	150	59
O=C(Nc1cccc([N+](=O)[O-])c1)c1cc(S(=O)(=O)Nc2ccc(Br)cc2)ccc1Cl	105	-12	.	.
COCc1nc2ccccc2n1CCCOc1ccccc1	105	-23	.	.
COC(=O)c1cc2sc(Cl)cc2n1Cc1cc(C)ccc1C	100	-18	114	92
c1cncc(-c2noc(-c3cc(C4CC4)[nH]n3)n2)c1	105	-34	103	87
O=C1c2[nH]nc(-c3ccccc3O)c2C(c2cccc(OCc3ccccc3)c2)N1CCO (stereo not given)	103	-9	109	78
C1=CCC(/C=N/n2cnnc2)CC1 (stereo not given)	.	-11	88	93
C=CCn1c(-c2ccco2)nn(C2CC(O)(O)C3OCC2O3)c1=S (stereo not given) (tested in a mixture with another compound)	.	-3	104	76
Cc1ccc2[nH]c(C(=O)Nc3ccccc3)cc2c1	101&100	-3&-17	113	98
CC1=CC(=NC#N)C(C)=CC1=NC#N	.	-2	93	96
CCn1c(=O)c(-c2ccccc2)c(O)c2ccccc21	98	-8	89	62
O=C(Nc1cccc(F)c1)NC1CCCC1	103	-16	84	92
COc1ccc(CC(CC(=O)O)C(=O)O)cc1 (stereo not given)	101	.	88	78
CCc1nc2ccccc2n1CCC(N)=O	98	.	89	90
CCOC(=O)C1(CCC#N)C(=O)C=C(c2ccc(OC)cc2)CC1c1ccc2ccccc2c1 (stereo not given)	98	-36	112	85
O=C(CC1COc2ccccc2N1Cc1ccc(F)cc1)Nc1nccs1 (stereo not given)	106	-16	.	.
CNC(=O)c1ccccc1-c1ccccc1	101	3	90	95
O=C(COn1c(=O)n(COC(=O)c2ccccc2)c2ccccc21)c1ccccc1	103	.	94	83
O=C(Cc1ccccc1)OCc1nc2ccccc2s1	.	4	104	105
Clc1ccc(N2CCCC3CCCCC32)nn1 (stereo not given)	96	-45	93	85
O=C(O)C1CC2C=CC1CC2 (stereo not given)	100	-16	103	91
Cc1nc(Cl)c2c(C)c(C)n(-c3ccc(F)cc3)c2n1	94	-29	.	.
COc1ccc(-n2c(-c3ccccc3)csc2=NC(=O)c2ccccc2)cc1	.	-23	116	91
CCOc1ccc(-c2n[nH]c3c2C(c2cccnc2)N(c2ccc(Br)cc2)C3=O)cc1 (stereo not given)	103	4	.	.
CC(C)/C(=N/O)c1ccccc1	101	-45	93	84
CCCCN1C=C(OC(=O)c2ccccc2)c2ccccc2S1(=O)=O	99	-19	.	.
CCCN1CCN(C(=O)c2cc(C)nc3c(-c4ccc(F)cc4)cccc23)CC1	109	-25	.	.
CC(C)C(=O)N1CCN(S(=O)(=O)c2ccc(F)cc2)CC1	.	-3	86	94
CC1CCCN(C(=O)Nc2cn(C)c(=O)c3ccccc23)C1 (stereo not given)	107	-8	.	.
CC1Cc2cc(S(=O)(=O)NCc3ccc(Cl)cc3)ccc2N1C(=O)C1CCC1 (stereo not given)	106	.	103	88
Cc1nnc(SCc2ccc(C(=O)O)cc2)s1	104	3	81	86
COc1ccc(NC(=O)c2nc(SCc3ccc(F)cc3)ncc2Cl)cc1	102	-21	96	84
COc1cc(/C=N/c2oc(C)c(C)c2C#N)cc(Br)c1O	.	-44	106	86
CCCOC(=O)c1c(NC(=O)CSc2nc(-c3ccco3)cc(C(F)(F)F)n2)sc(C(=O)N(C)C)c1C	98	-30	82	61
Cc1cc(-c2nn3c(C4CCCCC4)nnc3s2)c2ccccc2n1	105	-37	.	.
COC(=O)c1ccc(NC(=O)C(=O)NCCc2sc(-c3cccc(F)c3)nc2C)cc1	106	.	74	90
Cc1cccc(C)c1OCc1cc(=O)n2ccsc2n1	97&91	-8&-10	92	83
Cc1oc(CC(C)C)c(CN2CCOCC2)c1C(=O)O	100	-32	102	87
COC(=O)COc1ccc2c(=O)c(-c3ccc4c(c3)OCCO4)c(C)oc2c1	105	-19	95	85
Cc1ccccc1Cn1c2ccccc2c2cnn(CC(=O)N3CCCC3)c(=O)c21	106	.	126	87

Pulled one by one from above, 6 records:
SMILES	GIV-Gai inh	HCMV NEC inh	Sa growth 42C	Sa growth 42C second temp
COc1cc(C=C2C(=O)NC(=O)NC2=O)ccc1OC(=O)c1cc(F)c(F)cc1Cl	101	-3	.	.
C1=CCC(/C=N/n2cnnc2)CC1 (stereo not given)	.	-11	88	93
Cc1ccc(NC(=O)c2cc(S(=O)(=O)N3CCCCCC3)ccc2F)cc1F	108	.	124	96
COc1ccc2nc(NC(=O)CN(C)S(=O)(=O)c3cccs3)sc2c1	105	.	150	59
Cc1ccccc1Cn1c2ccccc2c2cnn(CC(=O)N3CCCC3)c(=O)c21	106	.	126	87
CCN(CC)S(=O)(=O)c1cc(C(=O)N2CCN(c3ccccc3)CC2)ccc1N1CCCC1	108	2	.	.

Additional compounds follow.
SMILES	GIV-Gai inh	HCMV NEC inh	Sa growth 42C	Sa growth 42C second temp
Cc1ccc(C(=O)COC(=O)c2cc(C)oc2C)cc1	.	-29	95	97
Cn1nc(-c2ccc(C(=O)Nc3ccc(OC(F)(F)F)cc3)cc2)c2ccccc2c1=O	102	.	117	79
Cc1cc(C)cc(NS(=O)(=O)c2cc3[nH]c(=O)c(=O)[nH]c3cc2C)c1	101	.	104	94
CCOC(=O)c1cc(-c2ccccc2)sc1N	.	-4	63	96
CCCN1C/C(=C/c2ccc3c(c2)OCO3)C(=O)/C(=C/c2ccc3c(c2)OCO3)C1	104	-21	86	84
CCc1nn(CC(=O)NCCCN(CC)CC)c(=O)c2cc3sc(C)cc3n12	107	-32	101	92
COc1ccccc1Nc1ncnc2ccccc12	.	-26	99	86
COc1cc(/C=C(\C#N)C(=O)NC2CCCCC2)cc(OC)c1O	.	-41	108	90
Cc1ccc(NC(=O)c2ccccc2NS(C)(=O)=O)cc1C	101	1	87	64
COC(=O)CNC(c1ccccc1)c1cc(Br)ccc1NC(=O)c1ccccc1Cl (stereo not given)	108	.	110	98
O=C(c1ccco1)N1CCN(CC(O)COCc2cccs2)CC1 (stereo not given)	.	-18	85	91
Cc1cccc(-n2nc(C)c(C(=O)O)c2-n2cccc2)c1	105	-26	.	.
CC(C)C[C@H](NC(=O)[C@H](O)[C@H](N)Cc1ccccc1)C(=O)O	105	-12	.	.
CCOC(=O)CC(C)=Nc1cnn(-c2ccccc2)c1	99	-1	126	116
O=C(CSc1nccn1-c1ccc(Cl)cc1)Nc1ccc(Cl)c(Cl)c1	103	.	115	74
COc1cccc(N2C(C)=CC(=C(C#N)C#N)C=C2C)c1	.	-36	88	86
CCOC(=O)c1nc(NCc2ccccn2)c2c(CC)noc2n1	104	-9	.	.
Cn1c(=O)n(C)c2cc(CNCc3ccc(F)cc3)ccc21	105	-29	106	88
O=c1c2cc3c(cc2n(Cc2cccc(Cl)c2)c(=O)n1Cc1nc(-c2ccccc2)no1)OCO3	101	.	69	85
